# Screening results deposited in PubChem BioAssay by National Center for Advancing Translational Sciences (NCATS).
# Marburg entry inh: Marburg virus entry inhibition; AID 540276; 1.8% of 300,000 active; Potency, µM (series often up to 37.8 µM), inactives show at the top dose activity change, negative = inhibition, usual class: inhibitors; Marburg virus pseudotyped entry inhibition, cell reporter; control for the full effect not named in the record; about a third of the inactives were read at about 46 µM; active = well fitted inhibition curve with a large enough effect; inconclusive = small, poorly fitted or top-dose-only effect, or effect the other way; inactive = flat fitted curve, though single readings scatter; tested in HEK293 cells; about a fifth of its hits are not listed in these tables; also: % is scaled to controls: 0 for no effect and ±100 for the full control effect; luciferase read-out
# StopGo reporter: lowers the luciferase signal of an FMDV 2A StopGo reporter. human cells with a luciferase reporter of 2A StopGo recoding; control for the full effect not named in the record. Potency, µM (series often up to 57.9 µM), without a hit: at the highest dose signal change, negative = less light. 1.2% of 410,000 active; active = well fitted falling curve with a large enough effect; inconclusive = small, poorly fitted or top-dose-only effect; inactive = no such curve, though single readings can be large or run the other way; tested in HEK293T cells; also: % is scaled to controls: 0 for no effect and ±100 for the full control effect; nearly all actives have a fitted effect of over 45% in size; luciferase light after 4 h
# Cruzain inh noDet: cruzain (T. cruzi) inhibition without detergent; P25779; purified cruzain, Z-FR-AMC fluorescence, no detergent; Potency, µM, without a hit: max response, negative = inhibition, actives largely listed as inhibitors; 2.3% of 200,000 active; AID 1476; active = well fitted curve in the direction sought with a large enough effect; inconclusive = small, poorly fitted or top-dose-only effect, or another doubt; inactive = no such curve, though single readings can be large; an effect the other way counts as inactive or inconclusive;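 also: plate controls were enzyme without inhibitor for no effect and buffer without enzyme for full effect; nearly all actives have a fitted effect of over 40% in size; top concentration of the series not given in the record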
# Target sequence (P25779 123-467 limits assumed): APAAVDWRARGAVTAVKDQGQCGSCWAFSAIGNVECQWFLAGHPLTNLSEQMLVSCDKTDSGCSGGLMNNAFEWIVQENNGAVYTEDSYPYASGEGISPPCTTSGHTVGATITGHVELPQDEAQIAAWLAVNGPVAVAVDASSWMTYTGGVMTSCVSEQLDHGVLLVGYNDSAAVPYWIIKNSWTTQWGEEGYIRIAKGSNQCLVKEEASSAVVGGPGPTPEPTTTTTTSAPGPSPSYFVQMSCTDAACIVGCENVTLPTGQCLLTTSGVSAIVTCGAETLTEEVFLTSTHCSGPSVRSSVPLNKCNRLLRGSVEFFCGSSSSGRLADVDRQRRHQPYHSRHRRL
#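 Detergent-free condition (0.00005% Triton X-100) in acetate buffer pH 5.5 with DTT. 1.5 nM enzyme and compound were pre-mixed 15 min, then 2 uM Z-FR-AMC substrate added; reaction progress from fluorescence change between first and third reads (60 s).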
# RE007 growth inh: less growth of the S. pombe RE007 Vpr strain. S. pombe RE007 Vpr strain, BacTiter-Glo ATP luminescence, 24 h; control for the full effect not named in the record. Potency, µM (titrated, usually from 92.2 µM), inactives show at the highest dose activity change, negative = less growth. 0.21% of 360,000 active; active = well fitted falling curve with a large enough effect; inconclusive = small, poorly fitted or top-dose-only effect; inactive = no such curve, though single readings can be large or run the other way;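 also: % is scaled to controls: 0 for no effect and ±100 for the full control effect; nearly all actives have a fitted effect of over 50% in size; the assay follows cell death caused by Vpr and the record does not say whether a fall means rescue or toxicity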
#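 Fission yeast strain RE007, carrying one chromosomally integrated HIV-1 vpr copy, was seeded at OD 0.01 in PMG+AL medium with 23 nL pinned compound. After 24 h at 30 °C and 99% humidity, viability was read by BacTiter-Glo luminescence.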
# Cruzain inh Det: cruzain (T. cruzi) inhibition with detergent. P25779. purified cruzain, Z-FR-AMC fluorescence, 0.01% Triton. Potency, µM, inactives show max response, negative = inhibition, most hits filed as inhibitors. 0.43% of 200,000 active; active = well fitted curve in the direction sought with a large enough effect; inconclusive = small, poorly fitted or top-dose-only effect, or another doubt; inactive = no such curve, though single readings can be large; an effect the other way counts as inactive or inconclusive;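 also: plate controls were neutral wells for no effect and buffer without enzyme for full effect; nearly all actives have a fitted effect of over 40% in size; top concentration of the series not given in the record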
#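 Enzyme 1.5 nM, Z-FR-AMC 2 uM, NaOAc 100 mM pH 5.5, DTT 5 mM, Triton X-100 0.01%; 15 min RT compound preincubation; kinetic ex360/em450, 60 s delta.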
# LASV entry inh: blocks Lassa virus binding to or entry into cells; Lassa virus pseudotype entry inhibition, cell reporter; control for the full effect not named in the record; Potency, µM (top dose mostly 37.9 µM), for the others: top-dose activity change, negative = inhibition, usual class: inhibitors; 1.2% of 300,000 active; AID 540256; active means well fitted inhibition curve with a large enough effect; inconclusive means small, poorly fitted or top-dose-only effect, or effect the other way; inactive means flat fitted curve, though single readings scatter; tested in HEK293 cells; also: % is scaled to controls: 0 for no effect and ±100 for the full control effect; nearly all actives have a fitted effect of over 50% in size; luciferase read-out
# NS1 function inh: inhibitors of influenza NS1 protein function. 0.4% of 270,000 active. AID 2326. Potency, µM (titrated, usually from 46.1 µM), without a hit: top-dose activity, positive = more growth. S. cerevisiae slowed by influenza A NS1, growth recovery by OD600; also: actives are rising curves; nearly all actives have a fitted effect of over 50% in size
#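 Growth recovery, yeast-based: influenza A NS1 expressed in S. cerevisiae causes slow growth, and suppressors are detected by OD600. The parent strain without NS1 is used as positive control.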
# SARS PLpro yeast: blocks SARS-CoV papain-like protease in a yeast assay. AID 485353. Potency, µM (highest dose often 32.9 µM), inactives show at the top dose activity, positive = growth rescue. 0.19% of 330,000 active. S. cerevisiae expressing SARS-CoV PLpro, growth rescue; control for the full effect not named in the record; also: 0% is about no effect; nearly all actives have a fitted effect of over 55% in size; growth read by luminescence after 48 h
# * hit, by the source's call; u = inconclusive; x = not tested or not shown; & = joins results of further samples; [ ] = another dose, or the depositor's remark. Unless noted, calls follow the shape of the dose curve; as a rule, active means well fitted rising curve with a large enough effect; inconclusive means small, poorly fitted or top-dose-only effect; inactive means no such curve, though single readings can be large or run the other way. Potency is read from the fitted curve at half-maximal effect. Compounds as they come; about 4.8% have a hit in one of these screens.
SMILES,Marburg entry inh,StopGo reporter,Cruzain inh noDet,RE007 growth inh,Cruzain inh Det,LASV entry inh,NS1 function inh,SARS PLpro yeast
O=C(C1CCC(CNc2c(N3CCCCC3)c(=O)c2=O)CC1)N1CCN(C2CCCCC2)CC1 (stereo not drawn),x,-2%,x,-6%,x,x,1%,4%
O=C(NCCCN1CCOCC1)C(=O)c1c[nH]c2ccccc12,-20%[46.1 µM],4%,x,-10%,x,26%[46.1 µM],8%,12%
CCCCC(C(=O)NC1CCCC1)N(Cc1ccco1)C(=O)Cn1nnc(-c2ccc(F)cc2)n1 (stereo not drawn),u,u,8%,14%,1.6%,u,-23%,1%
O=C(Cn1cc(C(F)(F)F)ccc1=O)N/N=C/c1cccc(Cl)c1Cl,16%,-16%,u,x,0.8%,17%,39%,2%
COc1ccc(NC(=O)Cc2c[nH]c3ccccc23)cc1S(=O)(=O)N1CCCCC1,-29%,25%,-3%,12%,-6.3%,-7%,u,16%
O=C(N/N=C/c1cccc2cccnc12)c1ccccc1O,x,1%,x,-28%,x,x,-66%,-3%
Nc1ncnc2nc(SCCOc3ccc(Cl)cc3)[nH]c12,-2%,u,-11%,-8%,-4.3%,u,0%,1%
Cc1ccc2cccc(S(=O)(=O)N3CCN(c4cccc(Cl)c4)CC3)c2n1,u,u,-2%,13%,-0.5%,-25%,-3%[9.22 µM],-11%
CC(C)CCN(CC(=O)NC(C)(C)C)C(=O)C(=O)Nc1ccc2c(c1)OCCO2,2%[46.1 µM],24%,x,-5%,x,-1%[46.1 µM],-8%,0%
CC1CCN(S(=O)(=O)c2ccc3nc(NCc4ccccc4)ccc3c2)CC1,x,11%,-1%,x,-5.3%,u,x,x
Cc1nn2c3ccccc3n(Cc3ccccc3)c2nc1=O,-1%,-3%,-12%,15%,-5.8%,u,21%,2%
CC(C)Cc1nc2sc3c(c2c(=O)n1N)CC(C(C)C)OC3 (stereo not drawn),x,-14%,x,19%,x,x,1%,1%
COc1ccc(/C=C2/S/C(=N/S(=O)(=O)Cc3ccccc3)NC2=O)cc1OC,x,70%[activator],x,4%,x,x,15%,1%
N#Cc1c(N2CCCC2)ccc(Br)c1Cl,x,0%,x,-11%,x,x,-3%,-1%
CCc1nnc(NC(=O)c2ccc(F)c(S(=O)(=O)N3CCCCC3)c2)s1,x,u,x,13%,x,x,13%,-5%
O=C(Cn1cnc2c(oc3ccccc32)c1=O)N1CCN(c2ccccc2)CC1,6%&6%,26%,-15%,10%,1.5%,1%,-6%,x
Cc1ccc(C)c(S(=O)(=O)N2CCCOC2CNC(=O)C(=O)NCc2cccs2)c1 (stereo not drawn),-22%,-3%,x,-2%,x,-7%,-5%,16%
O=C(Cn1c(=O)n2nc(-c3cccc(F)c3)nc2c2ccccc21)N1CCN(c2ccccc2F)CC1,x,-25%,24%,x,2.0%,0%[46.1 µM],x,x
COc1ccc(C)cc1S(=O)(=O)NC1CCCCCC1,2%[46.1 µM],37%[activator],x,1%,x,5%[46.1 µM],6%,-4%
CCOC(=O)CSC1=C(C#N)C(c2ccccc2C)C2=C(CCCC2=O)N1 (stereo not drawn),x,-26%,-4%,-5%,-1.5%,-2%,-1%,-4%
CCc1noc(C)c1C(=O)N(C)CC(=O)Nc1ccc(Br)cc1C,1%,-9%,x,18%,x,6%,x,3%
CC(=O)N1CCN(c2ccc(NC(=O)c3cccc(C)c3)cc2)CC1,5%,66%[activator],x,4%,x,1%,9%,4%
CCOc1ccc(/C=N/NC(=O)c2csc(C)c2C)c(OCC)c1,-2%,15%,-16%,-26%,-9.1%,5%,7%,21%
CCc1nnc2c(NCc3cccc(OC)c3)nc3ccccc3n12,-6%[46.1 µM],10%,-5%,x,-0.2%,11%[46.1 µM],x,x
CC(C)Sc1nnc([C@@H]2CCCN2C(=O)OC(C)(C)C)o1,u,6%,2%,4%,-0.1%,15%,-5%,2%
O=C(COC(=O)c1cc(-c2cccs2)nc2ccccc12)c1ccc(F)cc1,22%[46.1 µM],23%,u,x,-6.4%,-29%[46.1 µM],x,x
Cc1cccc(C)c1N=Cc1c(O)n(-c2nccs2)c(=O)c2ccccc12,u,u,-15%,8%,-8.3%,u,16%,3%
CC(C)n1nc(C(=O)Oc2cc(Cl)ccc2Cl)c2ccccc2c1=O,-1%,-21%,17%,3%,-5.5%,1%,4%,-16%
O=C(CSc1nnc2c(Cl)cc(C(F)(F)F)cn12)N(Cc1ccccc1)Cc1ccccc1,u,u,-24%,5%,-5.4%,4%,0%,-22%
Cc1nnc(SCC(=O)c2c(N)n(C)c(=O)n(C)c2=O)[nH]c1=O,u,-13%,7%,-2%,2.6%,10%,6%,-5%
CCn1c(SCC(=O)NC2CCCCC2C)nnc1-c1ccc(OC)cc1 (stereo not drawn),5%,-23%,2%,-5%,1.4%,13%,-2%,0%
Oc1[nH]c2ccccc2c1N=NC(=S)NCC1CCCO1 (stereo not drawn),-28%,-8%,-3%,2%,-4.5%,u,7%,3%
Cc1ccc(S(=O)(=O)N2CCC(C(=O)OCC(=O)N3CCC(C)CC3)CC2)cc1C,3%,-14%,x,3%,x,10%,x,5%
O=C1CN(C(=O)COC(=O)C23CC4CC(CC(O)(C4)C2)C3)c2ccccc2N1,15%,-1%,-9%,-6%,1.8%,6%,10%,4%
Cc1c(C)c2cc(Cl)c(O)c(CN3CCCCC3)c2oc1=O,-13%,12%,-100%,-5%,u,u,6%,-2%
O=C(Cn1c(SCCOc2ccccc2Cl)nc2ccccc21)N1CCCCC1,u,-9%,-5%,x,-2.5%,-26%[46.1 µM],x,x
O=C(CN(Cc1ccc(Cl)c(Cl)c1)S(=O)(=O)c1ccccc1)N/N=C\c1ccc2c(c1)OCO2,u,-27%,u,28%,4.5%,u,-8%,-4%
Cc1ccc(C2(O)CCN3CCCCC32)cc1 (stereo not drawn),-2%[46.1 µM],12%,-27%,7%,-2.6%,21%,-2%,u
CNC(=O)c1ccc(=O)n(Cc2cccc(C(F)(F)F)c2)c1,6%[46.1 µM],4%,x,12%,x,5%[46.1 µM],-1%,2%
CC(C#N)On1c(SC(C)C#N)nc2ccccc2c1=O (stereo not drawn),9%,13%,-14%,-8%,-3.5%,-5%,-1%,0%
C[N+]1(C)CCOC(O)(c2ccc(-c3ccc(C4(O)C[N+](C)(C)CCO4)cc3)cc2)C1 (stereo not drawn),16%&2%&16%&4%&16%&2%,-1%&-20%,-10%&9%,-5%,-1.4%&0.2%,u,-3%&0%,6%
COc1cccc(N(CC(=O)NCc2ccco2)C(=O)CCC(=O)Nc2nccs2)c1,20%[46.1 µM],-2%,x,-4%,x,u,3%,2%
O=C(Nc1cccc2ncccc12)c1ccco1,u,1%,x,5%,x,24%[46.1 µM],9%,10%
CN(C)C(=O)COn1c(SCC(=O)N(C)C)nc2ccccc2c1=O,0%&0%,-8%,-2%,-7%,2.4%,-3%,5%,-8%
CC(C)(C)c1cc(NC(=O)c2cccc(S(=O)(=O)N3CCOCC3)c2)no1,u,-5%,1%,-21%,-1.5%,u,-1%,9%
Cc1cc(NS(=O)(=O)c2ccc(NC(=O)COc3c(C)cc(Br)cc3C)cc2)no1,3%&14%[46.1 µM],9%&-12%,-9%,11%,-23%,u,23%,10%
CCOc1cc(CNC(=O)c2ccc(NC(=O)c3nsc4ccccc34)cc2)ccc1OC,x,0%,u,x,-2.8%,28%[46.1 µM],x,x
COc1ccc(CNC(=O)c2cnc3ccc(C)cn3c2=O)cc1,3%[46.1 µM],17%,1%,x,-0.6%,x,x,x
Cc1ccc(C(C[N+](=O)[O-])c2c(C)[nH]n(-c3ccccc3)c2=O)cc1 (stereo not drawn),1%,u,-16%,20µM*,-5.0%,u,-21%,-3%
Cc1ccc(S(=O)(=O)NCC(=O)N(CC(=O)NC(C)(C)C)Cc2ccc3c(c2)OCO3)cc1,5%,11%,x,-14%,x,17%,-7%,1%
CCOc1ccccc1NC(=O)CN1CCC(NC(=O)c2ccccc2C)CC1,-22%[46.1 µM],-13%,x,-13%,x,-5%,-2%,0%
Cc1nc2ncnn2c(C)c1CCC(=O)O,-8%&-2%,4%,18%,2%,8.4%,u,-3%,1%
CC(=O)N(c1ccc(Cl)cc1)c1nc(C)cc(C)c1C#N,2%[46.1 µM],10%,x,17%,x,-3%,1%,1%
CCOc1cc(C(=O)N2CCC3(CC2)OCCO3)cc(OCC)c1OCC,-1%,1%,19%,-5%,1.6%,-23%[14.3 µM],-6%,-1%
CN1CCC2(O)OCCCC2C1 (stereo not drawn),15%[46.1 µM],-11%,x,9%,x,-7%[46.1 µM],-2%,1%
CC(=O)Nc1ccc(S(=O)(=O)NC2Cc3ccccc3C2)cc1,3%,11%,x,3%,x,x,1%,0%
CCC(=O)Nc1cccc(-c2cn3ccsc3n2)c1,4%[46.1 µM],19%,3%,-1%,-2.6%,6%,-4%,-14%
CCC(=O)N1CCc2cc(Br)cc(S(=O)(=O)N3CCCCC3CC)c21 (stereo not drawn),5%[46.1 µM],-12%,x,3%,x,14%,9%,3%
CS(=O)(=O)N1CCc2cc(C(=O)N3CCCCC3)ccc21,-2%,-1%,-3%,7%,-2.0%,-4%,2%,-5%
CCOc1ccc(/C=C2\CCC(C3CCCC3)C2=O)cc1OC (stereo not drawn),x,68%[activator],x,1%,x,x,1%,0%
CCOC(=O)N1CCN(C(=O)CSCC(=O)Nc2nc(-c3ccc(C)cc3)cs2)CC1,x,-21%,u,-19%,-0.8%,x,8%,0%
CC(=O)Nc1ccc(S(=O)(=O)NCC(C)NS(=O)(=O)c2ccc(NC(C)=O)cc2)cc1 (stereo not drawn),25%&25%,-15%,6%,-17%,2.3%,0%,4%,-5%
O=C(N/N=C/c1cn(CC(=O)N2CCOCC2)c2ccccc12)c1cccnc1,u,4%,x,-7%,x,14%[46.1 µM],-2%,-2%
